AF4-AF9 inh = inhibitors of AF4 peptide binding to AF9, primary screen, biochemical, AlphaScreen, biotin-AF4 peptide, FLAG-AF9, single point; inhibition, % at 10 µM; hit rate 0.47% among 350,000; AID 651704, 2012;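 active = every replicate reaching a set inhibition limit, whatever the replicate mean, cut at about 25% in these data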;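 note: 0% = plate neutral control median and 100% = total signal loss; the record names both 10 and 1 µM as test concentration; the first replicate is given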
Target sequence (P42568 whole entry, looked up): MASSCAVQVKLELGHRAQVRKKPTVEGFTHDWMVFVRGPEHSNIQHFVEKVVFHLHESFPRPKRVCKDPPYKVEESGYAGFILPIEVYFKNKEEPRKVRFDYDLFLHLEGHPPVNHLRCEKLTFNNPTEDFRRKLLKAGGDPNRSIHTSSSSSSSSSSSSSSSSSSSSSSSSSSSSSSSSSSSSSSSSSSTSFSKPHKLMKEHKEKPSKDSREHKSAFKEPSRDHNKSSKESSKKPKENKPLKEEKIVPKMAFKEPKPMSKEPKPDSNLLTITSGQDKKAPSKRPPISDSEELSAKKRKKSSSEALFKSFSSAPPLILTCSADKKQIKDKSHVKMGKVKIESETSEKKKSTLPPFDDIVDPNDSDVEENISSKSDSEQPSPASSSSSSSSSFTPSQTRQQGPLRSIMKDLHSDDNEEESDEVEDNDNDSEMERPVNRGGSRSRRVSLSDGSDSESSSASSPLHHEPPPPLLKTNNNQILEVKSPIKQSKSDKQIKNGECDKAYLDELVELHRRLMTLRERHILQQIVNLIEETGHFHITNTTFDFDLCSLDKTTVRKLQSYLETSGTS
FGF22 binding = binders of human FGF22 protein, primary screen, FGF22 synaptogenesis inhibitor project, biophysical, thermal shift, single point; Fibroblast growth factor 22 (Homo sapiens), Q9HCT0; recombinant FGF22 thermal shift, SYPRO orange fluorescence; percent of sucrose octasulfate shift, DMSO zero; calls only at 9.99 µM; hit rate 1.5% among 340,000;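 active = melting point raised past a set limit in the mean and every replicate; three in four hits are not shown here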
Target sequence (Q9HCT0 whole entry, looked up): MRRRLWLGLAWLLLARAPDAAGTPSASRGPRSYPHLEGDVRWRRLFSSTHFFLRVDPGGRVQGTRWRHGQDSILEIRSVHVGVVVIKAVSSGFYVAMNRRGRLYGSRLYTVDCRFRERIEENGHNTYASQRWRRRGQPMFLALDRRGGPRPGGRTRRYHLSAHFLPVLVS
Starred values were filed as active, the others as inactive; i = inactive; + = active, no number; & = joins results of further samples. An excerpt, so the mix of outcomes need not match the whole.

SMILES | AF4-AF9 inh | FGF22 binding
CS(=O)(=O)N1CC(=O)N2[C@H](CO)[C@@H](c3ccc(C#CCc4ccccc4)cc3)[C@H]2C1 | 4.5 | +
CC(C)CC#Cc1cnc2c(c1)C(=O)N([C@@H](C)CO)C[C@H](C)[C@@H](CN(C)S(=O)(=O)c1cccs1)O2 | 2.0 | i
COc1cccc(-c2cnc3c(c2)C(=O)N([C@@H](C)CO)C[C@@H](C)[C@@H](CN(C)C(=O)CC2CC2)O3)c1 | -1.1 | i
C[C@H](CO)N1C[C@H](C)[C@@H](CN(C)C(=O)NC2CCCCC2)OCCCC[C@H](C)Oc2ccc(NS(=O)(=O)c3ccc(F)cc3)cc2C1=O | -1.9 | i
COc1ccc(NC(=O)N[C@H]2CC[C@H](CCNC(=O)Cc3ccncc3)O[C@H]2CO)cc1 | -0.1 | i
COc1ccc(NC(=O)N(C)C[C@@H]2Oc3ncc(-c4ccc(C#N)cc4)cc3C(=O)N([C@@H](C)CO)C[C@H]2C)cc1 | -8.3 | i
C[C@@H](NC(=O)[C@H]1[C@H](CO)[C@H]2Cn3c(cccc3=O)[C@H]2N1CC1CCCC1)c1ccccc1 | -13.5 | i
C[C@@H]1CN([C@H](C)CO)C(=O)c2cccc(NS(=O)(=O)c3cccs3)c2O[C@@H]1CN(C)Cc1ccc(C(=O)Nc2ccccc2N)cc1 | 0.1 | i
C[C@H](O)C#Cc1ccc([C@H]2[C@H](CO)N3CCCCN(S(=O)(=O)Cc4ccccc4)C[C@@H]23)cc1 | 1.3 | i
O=C([C@H]1[C@H](CO)[C@H]2Cn3c(ccc(-c4cccnc4)c3=O)[C@@H]1N2CCC(F)(F)F)N1CCCCC1 | -1.3 | i
COc1ccc2c3c(n(C)c2c1)[C@@H](CO)N(C(=O)c1ccc(F)cc1)CC31CCN(CC2CC2)CC1 | -0.7 | i
CN(C)C(=O)c1cccc(-c2ccc([C@@H]3[C@H](CO)N4CCCCN(S(C)(=O)=O)C[C@@H]34)cc2)c1 | -4.6 | i
O=C(Nc1ccc(F)cc1)N[C@H]1CC[C@@H](CCNS(=O)(=O)c2cccc(Cl)c2)O[C@@H]1CO | 3.3 | i
COc1ccc(S(=O)(=O)Nc2cccc3c2O[C@H](CN(C)S(=O)(=O)c2cccs2)[C@H](C)CN([C@@H](C)CO)C3=O)cc1 | -0.9 | i
C[C@@H]1CN([C@H](C)CO)C(=O)c2cc(NS(=O)(=O)c3ccc(F)cc3)ccc2O[C@@H](C)CCCCO[C@@H]1CN(C)C(=O)NC1CCCCC1 | -3.7 | i
C[C@@H]1CCCCO[C@H](CN(C)C(=O)c2ccncc2)[C@H](C)CN([C@H](C)CO)C(=O)c2cc(N(C)C)ccc2O1 | -0.7 | i
O=C(N[C@H]1CC[C@H](CCNS(=O)(=O)Cc2ccccc2)O[C@@H]1CO)c1cnccn1 | -17.5 | i
C[C@@H]1CN([C@H](C)CO)C(=O)c2cc(NC(=O)CCC(F)(F)F)ccc2O[C@H]1CN(C)C(=O)Nc1cccc2ccccc12 | -1.0 | i
Cc1ccc(S(=O)(=O)N(C)C[C@@H]2OCCCC[C@H](C)Oc3ccc(NS(=O)(=O)c4ccccc4)cc3C(=O)N([C@H](C)CO)C[C@H]2C)cc1 | 3.3 | i
O=C(C[C@H]1CC[C@H]2[C@@H](COC[C@H](O)CN2C(=O)Nc2ccc(Cl)c(Cl)c2)O1)NCc1ccc(Cl)c(Cl)c1 | 0.1 | i
CC(=O)N1CCCCN2[C@@H](CO)[C@@H](c3ccc(-c4ccc(F)cc4)cc3)[C@@H]2C1 | -1.2 | i
CN1CCN(C(=O)C[C@H]2C=C[C@H](NC(=O)Nc3ccccc3F)[C@H](CO)O2)CC1 | -9.2 | i
COc1ccc(NC(=O)N(C)C[C@H]2Oc3ccc(NC(=O)Nc4ccccc4)cc3CC(=O)N([C@@H](C)CO)C[C@@H]2C)cc1 | -1.0 | i
COc1ccc2c3c(n(C)c2c1)[C@H](CO)NCC31CN(S(=O)(=O)c2ccccc2)C1 | 9.8 | i

In the list so far, 2 contain a Cl atom:
SMILES | AF4-AF9 inh | FGF22 binding
O=C(Nc1ccc(F)cc1)N[C@H]1CC[C@@H](CCNS(=O)(=O)c2cccc(Cl)c2)O[C@@H]1CO | 3.3 | i
O=C(C[C@H]1CC[C@H]2[C@@H](COC[C@H](O)CN2C(=O)Nc2ccc(Cl)c(Cl)c2)O1)NCc1ccc(Cl)c(Cl)c1 | 0.1 | i

Other results follow:
SMILES | AF4-AF9 inh | FGF22 binding
C/C=C/c1cnc2c(c1)C(=O)N([C@@H](C)CO)C[C@H](C)[C@@H](CN(C)C(=O)Nc1ccc(F)cc1)O2 | -2.9 | i
CO[C@@H]1CN(C)C(=O)c2ccc(NC(=O)C3CCCC3)cc2OC[C@@H](C)NC[C@@H]1C | -0.5 | i
CN(C)C(=O)C[C@@H]1CC[C@H]2[C@H](COc3ccc(NC(=O)c4cnccn4)cc3C(=O)N2C)O1 | -1.0 | i
C[C@@H]1CN([C@@H](C)CO)C(=O)Cc2cc(NC(=O)CCN3CCOCC3)ccc2O[C@@H]1CN(C)C(=O)Nc1ccc(F)cc1 | -2.4 | i
O=C(C[C@@H]1C[C@@H]2c3cc(NC(=O)NC4CCCC4)ccc3O[C@@H]2[C@@H](CO)O1)NCc1ccc(Oc2ccccc2)cc1 | 0.7 | i
CN1[C@@H]2c3ccc(-c4ccccc4)c(=O)n3C[C@H]1[C@H](CO)[C@H]2C(=O)NCCCN1CCOCC1 | -0.3 | i
CNC[C@@H]1Oc2ncc(C#Cc3ccc(OC)c(OC)c3)cc2C(=O)N([C@H](C)CO)C[C@@H]1C | 3.6 | i
Cc1ccc(S(=O)(=O)Nc2ccc3c(c2)C(=O)N([C@H](C)CO)C[C@H](C)[C@@H](CN(C)C(=O)Nc2ccccc2)O3)cc1 | -0.5 | i

Random excerpt: 3 records from the list
SMILES | AF4-AF9 inh | FGF22 binding
O=C([C@H]1[C@H](CO)[C@H]2Cn3c(ccc(-c4cccnc4)c3=O)[C@@H]1N2CCC(F)(F)F)N1CCCCC1 | -1.3 | i
O=C(Nc1ccc(F)cc1)N[C@H]1CC[C@@H](CCNS(=O)(=O)c2cccc(Cl)c2)O[C@@H]1CO | 3.3 | i
C[C@@H](NC(=O)[C@H]1[C@H](CO)[C@H]2Cn3c(cccc3=O)[C@H]2N1CC1CCCC1)c1ccccc1 | -13.5 | i

Additional results:
SMILES | AF4-AF9 inh | FGF22 binding
CO[C@H]1CN(C)C(=O)c2ccc(NS(C)(=O)=O)cc2OC[C@@H](C)N(C(=O)C2CCC2)C[C@H]1C | -0.6 | i
C[C@@H]1CN([C@H](C)CO)C(=O)c2cccc(NC(=O)c3nc4ccccc4s3)c2O[C@H]1CN(C)S(C)(=O)=O | 0.3 | i
CNC(=O)C[C@H]1CC[C@@H]2[C@@H](COc3ccc(NC(=O)c4cccc(F)c4)cc3C(=O)N2C)O1 | 0.4&-1.7 | i
CO[C@H]1O[C@H](CO)[C@@H](OC(=O)Nc2cccc(F)c2)[C@H](OC(=O)Nc2ccc3c(c2)OCO3)[C@@H]1OC(=O)Nc1ccc2c(c1)OCO2 | 20.6 | i
COc1ccc(C#Cc2cnc3c(c2)C(=O)N([C@H](C)CO)C[C@@H](C)[C@H](CN(C)CC2CCOCC2)O3)cc1 | 4.2 | i
O=C(C1=C[C@@H](C2CC2)C[C@@H](OCCCCO)O1)N1CCCCCCC1 | -2.0 | i
C[C@H]1CN([C@@H](C)CO)C(=O)c2cc(NC(=O)Nc3ccc(C(F)(F)F)cc3)ccc2O[C@@H]1CN(C)C(=O)Nc1ccc2c(c1)OCO2 | 5.3 | i
CC(C)NC(=O)N(C)C[C@@H]1Oc2cc(C#Cc3cccc(F)c3)ccc2S(=O)(=O)N([C@H](C)CO)C[C@H]1C | 0.8 | i
Cc1ccc(S(=O)(=O)Nc2ccc3c(c2)CC(=O)N([C@H](C)CO)C[C@H](C)[C@@H](CN(C)S(=O)(=O)c2cn(C)cn2)O3)cc1 | 0.7 | i
O=C(C[C@@H]1C=C[C@H](NS(=O)(=O)c2ccc(F)cc2)[C@@H](CO)O1)N1CCc2ccccc2C1 | -4.0 | i
O=C(c1ccncc1)N1CCCCN2[C@H](CO)[C@@H](c3ccc(C#Cc4ccccn4)cc3)[C@H]2C1 | 1.4 | i
O=C(Nc1ccc2c(c1)OCO2)N[C@@H]1CC[C@@H](CCNC(=O)C2CC2)O[C@@H]1CO | -2.7 | i
Cc1ccccc1S(=O)(=O)N1C[C@@H](O)COC[C@@H]2O[C@@H](CC(=O)N3CCN(C)CC3)CC[C@H]21 | -1.4 | i
CO[C@@H]1CN(C)C(=O)c2ccc(NC(=O)C3CC3)cc2OC[C@@H](C)N(C(=O)Cc2ccccn2)C[C@H]1C | 1.1 | i
COC(=O)C[C@@H]1CC[C@H]2[C@@H](COc3ccc(NC(=O)c4ccccc4F)cc3C(=O)N2C)O1 | 0.1 | i
COc1ccccc1S(=O)(=O)N[C@H]1CC[C@H](CC(=O)N2CCN(C)CC2)O[C@@H]1CO | -4.4 | i
C[C@H]1CN([C@@H](C)CO)C(=O)c2cccc(NC(=O)Nc3ccc(F)cc3)c2O[C@@H]1CN(C)C(=O)Nc1ccc2c(c1)OCO2 | 2.7 | i
COc1ccc(S(=O)(=O)Nc2ccc3c(c2)C(=O)N([C@H](C)CO)C[C@H](C)[C@@H](CN(C)Cc2ccc(C(F)(F)F)cc2)OCCCC[C@H](C)O3)cc1 | -0.7 | i
C[C@@H]1CN([C@@H](C)CO)C(=O)c2cc(/C=C/c3ccccc3)cnc2O[C@@H]1CN(C)C(=O)c1cnccn1 | 0.8 | i
CN1CCCCN2[C@H](C1)[C@@H](c1ccc(Br)cc1)[C@@H]2CO | -2.2 | i
C[C@H]1CN([C@@H](C)CO)C(=O)c2cc(NS(C)(=O)=O)ccc2O[C@@H]1CN(C)Cc1ccc(C(=O)O)cc1 | -2.6 | i
CNC[C@H]1Oc2cc(C#CCC3CCCC3)ccc2S(=O)(=O)N([C@H](C)CO)C[C@@H]1C | 5.8 | i
O=C(C[C@@H]1C[C@H]2c3cc(NC(=O)Nc4ccc(C(F)(F)F)cc4)ccc3O[C@H]2[C@H](CO)O1)NCc1cc(F)ccc1F | -15.4 | i
O=C(C[C@@H]1C=C[C@@H](NC(=O)Nc2ccccc2F)[C@@H](CO)O1)NCc1ccc(-c2ccccc2)cc1 | -13.8 | i
Cc1ccc(S(=O)(=O)N(C)C[C@@H]2Oc3ccc(NS(=O)(=O)c4c(C)noc4C)cc3CC(=O)N([C@@H](C)CO)C[C@@H]2C)cc1 | -0.7 | i
CC(C)NC(=O)Nc1ccc2c(c1)C(=O)N([C@@H](C)CO)C[C@@H](C)[C@H](CN(C)C)OCCCC[C@H](C)O2 | -0.2 | i
COc1ccc2c3c([nH]c2c1)[C@H](CO)N(C(=O)c1ccccc1)CC31CCN(C(=O)c2cccc(F)c2)CC1 | -2.8 | i
COc1ccc(S(=O)(=O)N(C)C[C@@H]2OCCCC[C@H](C)Oc3ccc(NS(=O)(=O)c4cn(C)cn4)cc3C(=O)N([C@H](C)CO)C[C@@H]2C)cc1 | 1.7 | i
C[C@H]1CN([C@@H](C)CO)C(=O)c2cc(NS(=O)(=O)c3cn(C)cn3)ccc2O[C@@H]1CN(C)Cc1ccc(-c2ccccc2)cc1 | -8.2 | i
COCC(=O)N1CCCCN2[C@H](CO)[C@H](c3ccc(-c4ccc(C)cc4)cc3)[C@@H]2C1 | -1.4 | i
COc1ccc(C#Cc2ccc3c(c2)[C@@H]2[C@@H](CCN2S(=O)(=O)c2ccccc2C)[C@@H](CO)N3C)cc1 | 2.1 | i
C[C@@H]1CCCCO[C@H](CN(C)S(=O)(=O)c2ccccc2)[C@@H](C)CN([C@H](C)CO)C(=O)c2cc(NS(=O)(=O)c3ccc(F)cc3)ccc2O1 | -0.4 | i
Cc1ccc(S(=O)(=O)N[C@@H]2CC[C@H](CCn3cc(C4CCCCC4)nn3)O[C@H]2CO)cc1 | 0.4 | i
Cc1noc(C)c1NC(=O)N(C)C[C@@H]1Oc2ccc(NS(=O)(=O)c3cccs3)cc2C(=O)N([C@H](C)CO)C[C@H]1C | -11.6 | i
COc1ccc(S(=O)(=O)N(C)C[C@H]2OCCCC[C@@H](C)Oc3ccc(NS(=O)(=O)c4ccc(Cl)cc4)cc3C(=O)N([C@@H](C)CO)C[C@H]2C)cc1 | 2.1 | i
C[C@@H]1CCCCO[C@H](CN(C)Cc2ccncc2)[C@H](C)CN([C@@H](C)CO)C(=O)c2cc(NC(=O)c3ccncc3)ccc2O1 | -1.6 | i
COc1ccc(S(=O)(=O)N(C)C[C@@H]2OCCCC[C@@H](C)Oc3ccc(NC(=O)Nc4cccc5ccccc45)cc3C(=O)N([C@@H](C)CO)C[C@@H]2C)cc1 | -8.9 | i
CO[C@H]1CN(C)C(=O)c2ccc(NS(C)(=O)=O)cc2OC[C@@H](C)N(C(=O)CC2CC2)C[C@H]1C | -0.8 | i
CC(=O)N1[C@@H]2CN(S(=O)(=O)c3ccccc3C)c3ccccc3[C@@H]2[C@@H]1CO | 2.1 | i
COc1ccc(-c2ccc3c(c2)[C@H]2[C@H](CCN2S(=O)(=O)C2=NC(C)C=N2)[C@@H](CO)N3C)cc1 (stereo not given in full) | 6.4 | i
CN1C(=O)c2cc(NC(=O)C3CC3)ccc2OC[C@@H]2O[C@H](CC(=O)NCC3CCCCC3)CC[C@@H]21 | 0.6 | i

High-throughput results (PubChem)
